Screens from PubChem BioAssay.
PINK1 expr mod = modulators of PINK1 expression; actives 0.2% (n = 410,000); Potency, µM (titrated, usually from 76.6 µM), without a hit: at the top dose activation (PINK1 increase), hits mostly activators; PINK1 immunofluorescence, high-content cytometry, 24 h; active = well fitted activation curve with a large enough effect; inconclusive = small, poorly fitted or top-dose-only effect; inactive = flat fitted curve, though single readings scatter; cell line not stated here;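 further: potency means the concentration at half of the fitted maximal effect; % of control where 0% means no effect; nearly all actives have a fitted effect of over 65% in size; a mitochondrial uncoupler was the plate control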
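Fluorescence from anti-PINK1 antibody, together with nuclear and cell stains, was scanned on a laser-scanning cytometer. Before staining, stable-line cells were incubated 24 hours with compounds at 5 concentrations; primary antibody 12 h at 10 degrees C.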
ClpP mod = qHTS Assay for Activators of ClpP. ATP-dependent Clp protease proteolytic subunit (Bacillus subtilis (strain 168)), P80244. purified B. subtilis ClpP, FRET peptide cleavage, 20 min. actives 1.9% (n = 340,000). Potency, µM (top dose mostly 57.5 µM), for inactives: top-dose activity change, negative = active; active = well fitted falling curve with a large enough effect; inconclusive = small, poorly fitted or top-dose-only effect; inactive = no such curve, though single readings can be large or run the other way; further: potency means the concentration at half of the fitted maximal effect; the source files actives as falling curves though it sought activators and does not explain the sign; nearly all actives have a fitted effect of over 65% in size; many hits overshoot -100%
Target sequence (P80244 whole entry, looked up): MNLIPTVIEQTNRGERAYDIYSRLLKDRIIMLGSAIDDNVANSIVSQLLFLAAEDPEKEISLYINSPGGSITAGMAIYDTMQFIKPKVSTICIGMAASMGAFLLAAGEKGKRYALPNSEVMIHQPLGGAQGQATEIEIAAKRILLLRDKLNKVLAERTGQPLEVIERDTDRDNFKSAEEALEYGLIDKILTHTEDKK
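Purified B. subtilis ClpP, 10 microg/mL final in Tris/HCl pH8 with KCl, BSA, glycerol and Tween-20, cleaved an Abz/nitrotyrosine-quenched decapeptide. Fluorescence (ex 320, em 430) was read at 0 and 20 min at room temperature. Delta was normalized to 5.8 microM ADEP and DMSO/no-enzyme controls.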
Menin MLL FP FL = inhibitors of human menin-MLL interaction, wild-type MLL peptide. Fluorescence polarization, fluorescein-MLL peptide displacement from menin. FP activity change, % at 61.4 µM. 290,000 tested, under 10 active; inconclusive = falling polarisation curve, or a change in total fluorescence; inactive = total fluorescence flat and polarisation flat or rising; no compound was filed as active; the % refers to the polarisation; negative = inhibition;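 further: % of control where 0% means no effect; inhibitors lower the polarisation; unlabelled MLL peptide was the positive control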
Sfp PPTase inh = inhibitors of Bacillus subtilis Sfp phosphopantetheinyl transferase. Q9F4F7. Biochemical Sfp PPTase activity, qHTS. Potency, µM, without a hit: max response, negative = inhibition, hits mostly inhibitors. actives 3.5% (n = 310,000). AID 1490; active means well fitted inhibition curve with a large enough effect; inconclusive means small, poorly fitted or top-dose-only effect, or another doubt; inactive means no such curve, though single readings can be large or run the other way;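 further: the enzyme is Sfp with the accession as filed and its product quenches rhodamine fluorescence; potency means the concentration at half of the fitted maximal effect; 0% = enzyme reaction without inhibitor and -100% = no enzyme wells; top concentration of the series not given in the record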
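Buffer: 50 mM Hepes-Na pH 7.6, 10 mM MgCl2, 0.01% Nonidet P-40, 0.01% BSA. Enzyme 15 nM, pre-exposed to compound 15 min; substrates then added and fluorescence change tracked over 30 min.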
gsp ag = gsp mutant agonism | gsp mutant cells, cAMP HTRF, 30 min; control for the full effect not named in the record | Potency, µM (highest dose often 76.9 µM), without a hit: at the highest dose activation (cAMP increase), most hits filed as activators | actives 0.13% (n = 340,000); active = well fitted activation curve with a large enough effect; inconclusive = small, poorly fitted or top-dose-only effect, or another doubt; inactive = no such curve, though single readings can be large or run the other way; cell line not stated here;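 further: phosphodiesterase inhibitor Ro 20-1724 added with compounds to block cAMP breakdown; potency means the concentration at half of the fitted maximal effect; nearly all actives have a fitted effect of over 60% in size; about a fifth of the inactives were tested at one dose only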
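Cells stably selected in G418 were plated at 2000/well, grown 16-24 hr, then given compounds in DMSO with the PDE inhibitor […] (300 uM solution added) for 30 min at 37C; cAMP was read by HTRF.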
D2 ag = activates the human D2 dopamine receptor | P14416 | activation, % (no concentration beside the values) | actives 0.084% (n = 360,000) | DiscoveRx PathHunter D2 beta-arrestin, luminescence, 90 min; 100% = 57 uM dopamine signal | AID 624465; in the data active = activation above about 40%; inconclusive = about 15% to 40%; inactive = below about 15%; further: compound concentration not given in the record; the text of the record calls up to 30% inactive
Target sequence (P14416 whole entry, looked up): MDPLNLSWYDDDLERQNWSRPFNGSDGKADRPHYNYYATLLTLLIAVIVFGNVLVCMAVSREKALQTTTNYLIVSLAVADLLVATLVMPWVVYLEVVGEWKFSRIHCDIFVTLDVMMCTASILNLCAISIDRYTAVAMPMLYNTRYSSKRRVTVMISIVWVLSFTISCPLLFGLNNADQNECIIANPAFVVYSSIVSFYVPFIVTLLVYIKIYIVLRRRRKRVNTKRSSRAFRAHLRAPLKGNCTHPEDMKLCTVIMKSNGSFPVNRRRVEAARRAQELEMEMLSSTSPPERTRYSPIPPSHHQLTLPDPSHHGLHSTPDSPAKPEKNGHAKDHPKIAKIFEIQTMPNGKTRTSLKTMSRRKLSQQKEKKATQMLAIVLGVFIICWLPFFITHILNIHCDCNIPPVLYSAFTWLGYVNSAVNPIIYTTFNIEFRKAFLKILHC
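DiscoveRx PathHunter D2 beta-arrestin cells (2,100/well) attached overnight, then compound-stimulated 90 min at 37 C in HBSS/10 mM HEPES/0.1% Tween-20 buffer; beta-galactosidase complementation read by luminescence after 1 h at ambient temperature. Dopamine 57 uM final (EC100) as control.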
gsp antagonist = gsp mutant antagonism. gsp-mutant cells, cAMP HTRF, 30 min; control for the full effect not named in the record. Potency, µM (top dose mostly 76.9 µM), inactives show at the top dose activity change, negative = inhibition, hits mostly inhibitors. actives 0.4% (n = 340,000); active = falling curve of any shape with a large fitted effect; inconclusive = falling curve, mostly with a smaller effect; inactive = flat or rising curve; cell line not stated here;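 further: intracellular cAMP measured with PDE inhibitor Ro 20-1724 present during compound exposure; potency means the concentration at half of the fitted maximal effect; on the % scale 0 is the no-effect control and ±100 the full control effect; nearly all actives have a fitted effect of over 65% in size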
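HTRF cAMP read-out (cAMP-d2 plus anti-cAMP antibody-K in lysis buffer, 30 min RT). Before lysis, cells are exposed to compounds with […] for 30 min at 37C in DPBS containing Ca/Mg, BSA and Tween 20.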
* hit, by the source's call; ? = inconclusive; . = not tested or not shown; & = joins results of further samples; [ ] = dose if it differs, or a comment.

SMILES	PINK1 expr mod	ClpP mod	Menin MLL FP FL	Sfp PPTase inh	gsp ag	D2 ag	gsp antagonist
Cc1ccc(C2N(c3ccccc3)C(=O)N3CCCN23)cc1 (centres undefined)	0.5%	-1.8%	-0.6	9%	6%	-1.6	-4%
COc1cc(CNc2ccc(O)cc2)cc(Br)c1OCc1ccccc1F	6.0%	-3.7%	1.6	28µM*	5%	?	-20%
COc1ccc(C(=O)COC(=O)CNC(=O)c2ccc(Cl)cc2Cl)c(OC)c1	-2.1%	.	.	.	31%[15.4 µM]	-1.9	-2%
CCN(C(=O)COC(=O)c1cc(NS(=O)(=O)c2ccc(Cl)c([N+](=O)[O-])c2)ccc1O)C1CCCCC1	-3.1%	0.3%	3.7	19%	-25%	1.1	-18%
O=C(c1cccnc1)n1nc(NCc2ccccc2)nc1NCc1ccccc1	2.9%	.	-4.1	6%	0%	-1.6	-7%
Fc1cccc(-c2cncc(N3CCN(CCN4CCCC4)CC3)n2)c1	0.4%	-15%	.	.	.	-2.0	.
O=C(O)c1ccc(S(=O)(=O)NC2CCCCCC2)cc1	0.4%	0.8%	-2.1	13%	-8%	-3.2	6%
CCOc1ccccc1N1CCN(C(=O)c2csc(C)c2CC)CC1	0.6%	.	-3.1	4%	-48%[inhibitor]	-2.4	?
CCOc1cc(C(=O)N(Cc2ccccc2)c2ccc(C)cc2)ccc1OCC(=O)N1CCOCC1	0.0%	-1.2%	.	.	-42%[inhibitor]	0.6	-18%
COc1ccc(Cc2nnc(NC(=O)Cc3cccs3)s2)cc1	1.0%	-1.7%	-2.3	?	-8%	-0.6	-1%
CCN(C(=O)CSc1nnc(-c2ccco2)n1C)c1c(N)n(Cc2ccccc2)c(=O)[nH]c1=O	1.4%	1.2%	.	.	-6%	-3.2	10%
Cc1ccc(NC(=O)CN(C)C(=O)CNC(=O)c2ccc3c(c2)OCO3)cc1	-0.8%	-16%	.	.	2%	0.1	2%

Reformatted: entries from further up.
The line under a structure holds: PINK1 expr mod, ClpP mod, Menin MLL FP FL, Sfp PPTase inh, gsp ag, D2 ag, gsp antagonist
CCN(C(=O)COC(=O)c1cc(NS(=O)(=O)c2ccc(Cl)c([N+](=O)[O-])c2)ccc1O)C1CCCCC1
 : -3.1%, 0.3%, 3.7, 19%, -25%, 1.1, -18%
O=C(c1cccnc1)n1nc(NCc2ccccc2)nc1NCc1ccccc1
 : 2.9%, ., -4.1, 6%, 0%, -1.6, -7%

(continued)
SMILES	PINK1 expr mod	ClpP mod	Menin MLL FP FL	Sfp PPTase inh	gsp ag	D2 ag	gsp antagonist
COc1cc(C(=O)NCC(c2ccco2)N2CCCC2)ccc1OCc1ccc(Cl)cc1Cl (centres undefined)	-1.4%	-2.4%	.	.	-5%	6.8	7%
CN(C)CCNC(=O)C(C(=O)c1ccccc1)n1ccccc1=O (centres undefined)	1.9%	-1.9%	0.0	6%	12%	-1.3	5%
CCC(=O)N1CCCc2cc(S(=O)(=O)NCc3cccs3)ccc21	-1.1%	0.4%	3.5	8%	-78%[inhibitor]	-1.0	-17%
CCC(C)c1ccc(-c2cc(C(=O)OCC(=O)Nc3cc(C)on3)c3ccccc3n2)cc1 (centres undefined)	5.6%	27%	1.3	8%	7%	-2.3	-4%
Cc1ccc(-c2nc3ccccc3c(=O)n2CCCN2CCOCC2)cc1	-2.1%	-2.0%	0.4	-4%	9%	-3.3	8%
N#Cc1c(Cl)nsc1NN	0.8%	.	?	40µM*	-13%[15.4 µM]	-1.2	?
NC(=O)c1ccccc1O	0.0%	-0.8%	-1.2&1.2	3%&13%	.	-5.1	2%
COc1sc(SC)cc1/C=N/NC(=O)c1ccncc1	-2.1%	.	-4.8	-6%	-22%	-4.2	3%
Fc1cccc(CN2CCN(c3ncccn3)CC2)c1	-18%[38.3 µM]	-0.1%	0.5	45µM*	-1%	80*	5%
Cc1ncc(CC(=O)n2cc(C(=O)c3cc(F)ccc3O)cn2)s1	1.0%[38.3 µM]	29%	4.2	-6%	-19%	-2.6	-3%
CC(Sc1ccc(Br)cc1)C(N)=O (centres undefined)	-3.0%	-1.2%	2.1	7%	-9%	0.9	18%
COc1cccc(CN(C)c2nc(-c3cccs3)nc3ccccc23)c1	2.9%	.	1.1	-22%	-3%[15.4 µM]	-3.3	-11%
C[C@H](NC(=O)C1CC(=O)N(c2ccc3c(c2)OCCO3)C1)C(=O)N1CCC(C(=O)O)CC1 (some centres undefined)	-0.6%	-4.5%	.	3%	11%	3.7	5%
CCOc1ccccc1N1CC(C(=O)N(Cc2nnc(-c3ccccc3Cl)o2)C2CC2)CC1=O (centres undefined)	-0.1%	-1.3%	.	.	11%[15.4 µM]	-4.4	1%
CN(C)c1ccc(-c2csc(C(C)(O)c3cccc(F)c3)n2)cc1 (centres undefined)	12%	-15%	.	.	.	-3.1	.
O=C(CCCCl)N1CCc2[nH]c3ccccc3c2C1	-1.1%	-3.4%	.	.	16%[15.4 µM]	10	-2%
O=C(NC1CC1)c1cccc(NC(=O)C2CCC2)c1	-1.1%	-0.6%	.	.	.	-2.9	12%
O=C(CSc1n[nH]c(-c2ccncc2)n1)Nc1ccc(Br)cc1	3.0%	1.2%	-1.7	1%	-45%[inhibitor]	-2.3	-37%
COc1ccc(C(=O)COC(=O)C2CCC(=O)N2)cc1 (centres undefined)	1.1%	.	2.9	19%	10%[15.4 µM]	-4.8	2%
Cc1ccc(-n2nc(C)c(=O)c(-c3ccccc3)c2NC(=O)C(C)C)cc1	-0.6%	.	1.6	11%	3%[15.4 µM]	-7.1	0%
Cc1cc(NC(=O)CSc2nc3cc(Cl)ccc3c(=O)n2Cc2ccco2)no1	6.6%	.	4.3	?	8%[15.4 µM]	-3.2	-21%
O=C(NCCC1=CCCCC1)C(=O)c1c[nH]c2ccccc12	5.2%	-2.9%	2.4	19%	0%	2.0	2%
O=c1oc2ccccc2cc1-c1csc(NN=C2CCCC2)n1	13%	-12%	4.5	-6%	-21%	0.2	-28%
CN(C)c1ccc(CC(=O)N2CCCCC2c2cc(C(=O)Nc3cccc(C#N)c3)no2)cc1 (centres undefined)	-0.1%	-1.9%	.	.	.	14	.
COCCCNC(=S)NNC(=O)c1cc(C2CC2)nc2ccccc12	1.6%	33%	-1.9	19%	6%[15.4 µM]	-13	3%
Cc1cc(C)c(S(=O)(=O)N2CCN(C(=O)c3c(C)noc3C)CC2)c(C)c1	2.3%	-0.2%	.	.	7%	-0.1	1%
O=C(O)c1ccc(-c2nnc(-c3cccc(Br)c3)o2)cc1	2.8%	0.5%	-11	-2%	?	-2.0	-5%
COc1ccccc1C(=O)NCCC(=O)Nc1ccc(S(=O)(=O)N2CC(C)CC(C)C2)cc1 (centres undefined)	-0.5%	-0.3%	.	.	26%	0.4	-20%
Cn1c(N)c(C(=O)COC(=O)CNS(=O)(=O)c2cccc(Cl)c2)c(=O)n(C)c1=O	0.1%	-3.0%	6.7	11%	32%	-0.4	6%
CC(C)OCCCN(CC(O)c1ccccc1)CC(O)c1ccccc1 (centres undefined)	1.3%	-8.0%	.	-4%	-11%	-2.2	5%
Cc1c(CC(=O)N[C@@H](C)C(=O)O)c(=O)oc2cc3c(cc12)CCC(C)(C)O3	-0.2%	4.5%	-2.6	4%	10%	-2.4	3%
CCCn1nc(Oc2nc(NC(C)C)nc(N(C)C)n2)ccc1=O	2.0%	.	0.4	10%	-13%	3.5	8%
COc1ccc(CN2CCCCCC2)cc1	1.2%	-1.5%	-5.2	-14%	5%[15.4 µM]	-3.3	6%
COc1ccc(-n2c(Cc3cc(=O)[nH]c(=O)[nH]3)nnc2SCC(=O)Nc2ccccc2)cc1	1.8%	-4.8%	4.6	14%	-6%	-1.8	-6%
Cc1cc(C(=O)N/N=C/c2ccc(-c3cccc(Cl)c3Cl)o2)n[nH]1	6.0%	-24%	3.3	10%	-5%	-4.6	-10%
Cc1cc2n(n1)C(c1ccc3c(c1)OCO3)Nc1c(C)cccc1-2 (centres undefined)	.	-2.0%	-0.3	-3%	13%	0.3	3%
CN1OC[C@@H]2CN(Cc3ccc(Cl)cc3)[C@H](c3cccc(Br)c3)C[C@@H]21	1.9%	2.6%	.	.	.	-2.6	-12%
Cc1cc(C(=O)COC(=O)C23CC4CC(CC(O)(C4)C2)C3)c(C)n1-c1c(C)n(C)n(-c2ccccc2)c1=O	0.0%	0.4%	-1.3	7%	-6%[15.4 µM]	0.1	7%
O=C(Cc1ccccc1)NCCCNC(=O)Cc1ccccc1	-5.8%	28µM*	.	.	-26%	-3.0	4%
COc1ccc2c(c1)CCc1c(C(=O)NCc3ccco3)noc1-2	0.1%[38.3 µM]	-18%	-0.2	10%	-23%	0.3	-4%
O=C(NCCc1c[nH]c2ccccc12)C(=O)NCC(c1ccco1)N1CCN(c2ccc(F)cc2)CC1 (centres undefined)	?	-0.6%	2.5	-9%	12%[15.4 µM]	-2.0	2%
COc1cccc(C(=O)NCC2(c3ccc(OC)c(OC)c3)CCCC2)c1	0.7%	-0.5%	-6.2	5%	4%	-4.0	-5%
COCCN1Cc2cc3cc(C)ccc3nc2SC1=Nc1cccc(OC)c1	1.3%	-4.2%	4.6	-19%	-3%	2.9	-15%
CCOc1cc(C)c(S(=O)(=O)NC2CCCCC2)cc1C	13%	-1.6%	-4.3	-12%	-39%[inhibitor]	-3.7	2%
Nc1nc(Sc2ccc(C(F)(F)F)cc2[N+](=O)[O-])n[nH]1	-0.8%	-2.7%	0.7	11%	11%	-0.4	8%
O=C1NC(=Nc2ccccc2Cl)SC1(CO)CO	0.5%	-1.0%	7.1	2%	4%	-5.0	2%
O=C(NN1C(=O)c2ccccc2NC1c1ccccc1OCc1ccccc1)c1ccncc1 (centres undefined)	5.1%	-14%	2.0	9%	-6%	-4.4	2%
CCCNC(=O)C1CCN(S(=O)(=O)c2cccc3nonc23)CC1	-1.0%	.	1.7	7%	8%	6.2	-2%
